CBX7 AlphaScr: CBX7 chromodomain binding inhibitors, primary screen, biochemical, AlphaScreen; Chromobox protein homolog 7 (Homo sapiens), O95931; AlphaScreen His6-CBX7 / biotin-H3K27me3 peptide binding; hits give low values; normalised signal (fraction of DMSO) (concentration not given with the values); hit rate 1.1% among 66,000; in the data active = normalised signal below about 0.5;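 note: 100 nL library stock added to about 20 µL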
Target sequence (O95931 whole entry, looked up): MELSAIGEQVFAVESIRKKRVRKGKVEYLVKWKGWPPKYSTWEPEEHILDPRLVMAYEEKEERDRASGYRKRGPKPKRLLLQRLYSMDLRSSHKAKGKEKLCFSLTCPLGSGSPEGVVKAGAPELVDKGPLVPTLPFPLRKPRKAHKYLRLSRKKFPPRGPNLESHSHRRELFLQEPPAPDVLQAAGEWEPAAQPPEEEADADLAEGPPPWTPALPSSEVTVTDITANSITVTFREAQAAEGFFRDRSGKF
CBX7 AlphaScr z-score: further read-out of CBX7 AlphaScr, marked with its call; z-score; measured here: z-score of CBX7 signal; some inactives read as strong as hits; reference of the scale not given here;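 same signal on another scale; lower means less binding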
* marks the source's active call; other numbers are inactive results. These rows are one share of the data; count on the stated rates, not on these rows.

SMILES	CBX7 AlphaScr	CBX7 AlphaScr z-score
Cc1ccc(N2CCN(CC(O)COc3ccc([N+](=O)[O-])cc3)CC2)cc1 (centres undefined)	1.1	0.28
O=C(O)c1[nH]c2ccccc2c1CC(=O)N1CCN(c2ccccc2F)CC1	1	-0.095
CCN1CCN(C(c2cccs2)C(C)NC(=O)C(=O)N2CCOCC2)CC1 (centres undefined)	1.3	2.7
CCN1CCCC1CNC(=O)c1cc(Nc2ccc(OC)c(OC)c2)nc2ccccc12 (centres undefined)	0.79	-2.5
Cc1ccccc1-c1nc(CS(=O)(=O)CC(=O)N(C)C2CCCCC2)c(C)o1	0.97	-0.9
Cc1nc2cc(-c3ccccc3)nn2c(C)c1CCC(=O)NCc1ccc(Cl)cc1	1	1.4
Cc1ccccc1C(=O)Nc1nnc(Cc2ccccc2F)s1	1.1	1.5
Cc1onc(-c2ccccc2Cl)c1C(=O)NC1CCCCCCC1	1	1.3
O=C(NCCN1CCOCC1)C1CCN(c2nc3ccccc3[nH]2)CC1	1.1	1.2
CN(C(=O)Cn1c(SCc2ccccc2F)nc2ccncc21)c1ccccc1	1.1	1.8
Cc1ccc(C(=O)Nc2sc3c(c2C(=O)N2CCCCCC2)CCCCC3)cc1	0.96	-0.95
COc1ccc(CN2CCN(Cc3cccc(Cl)c3)CC2)c(OC)c1	0.86	-2.5
COc1ccc(-n2ncnc2-c2ccc(Cl)cc2Cl)cc1	0.95	-0.58
Cc1ccc(CNC(=O)CCc2nc3ccccc3n(Cc3ccccc3Cl)c2=O)cc1	0.95	-0.54
CCOc1ccc(NC(=O)c2cn(CC(C)C)c(=O)c3cc(OC)c(OC)cc23)cc1	0.97	-0.91
O=C(NC1CCCCC1)c1ccc2c(c1)ncn2C1CCCCCC1	0.99	-0.14
O=C(CCn1nc(-c2ccccc2)ccc1=O)NCCc1ccccc1	1	0.43
CCOc1ccc(NC(=O)N2CC=C(n3c(=O)[nH]c4ccccc43)CC2)cc1	0.95	-1.8
CC(=O)Nc1ccc(NC(=O)Cn2cnc3c(nnn3Cc3ccc(F)cc3)c2=O)cc1	0.89	-1.8
CCC(=O)N1CCc2cc(S(=O)(=O)NC(CC(C)C)C(=O)Nc3cc(C)ccc3C)ccc21 (centres undefined)	0.81	-2
CCc1c(C)sc(NC(=O)c2cccc(F)c2)c1C(=O)OC	1.4	4
COc1cccc(-c2cc(C(=O)Nc3cnn(Cc4ccc(Cl)cc4Cl)c3)no2)c1	1	0.083
COc1cc(OC)cc(-c2cc3nc(C)c(CCC(=O)Nc4ccccc4C)c(C)n3n2)c1	0.92	-1.5
CCOc1ccc(NC(=O)NCCCN2CCN(c3ccc(F)cc3)CC2)cc1	1.1	0.46
Cc1ccc(-c2nnc(Nc3cccc(Cl)c3)c3ccccc23)cc1S(=O)(=O)N(C)C	0.85	-2.9
COC(=O)CCNS(=O)(=O)c1ccc2c(c1)CCN2C(C)=O	0.95	-1.4
COc1ccc(NC(=O)CCc2c(C)nc3cc(-c4ccccc4OC)nn3c2C)cc1	0.97	-1.3
COc1ccc(-c2csc(-c3cccnc3)n2)cc1	1	0.18
COc1ccc(CNC(=O)Cn2ncc3ccsc3c2=O)cc1	1	0.013
CCc1cccc(C)c1Nc1c(-c2ccc(OC)cc2)nc2ncccn12	0.94	-0.25
COc1cc2c(cc1OC)C(c1ccccc1Cl)NCC2 (centres undefined)	1	0.61
CCC(C)(NC)c1nnnn1-c1ccc(Cl)cc1 (centres undefined)	1.1	1
Cn1c(C(=O)N2CCCC2)cc2sc(Cl)cc21	0.94	-2.2
COCCNC(=O)CN1C(=O)COc2ccc(Cl)cc21	1	0.01
Cc1ccc(-c2csc(NC(=O)CN3C(=O)CCC3=O)n2)c(C)c1	1.1	0.74
COc1ccc(-c2cc(C(F)(F)F)nc(-n3ccnc3)n2)cc1OC	1.1	1.5
CC1=Nc2cc(C(=O)NCc3ccc(F)cc3)ccc2Sc2c(C)ccc(C)c21	0.94	-0.98
Cc1ccc(-c2noc(CCC(=O)Nc3cccc(C(F)(F)F)c3)n2)cc1	1	0.034
CCCc1noc(-c2ccc(Br)cc2)n1	1.1	2.4
COc1ccc(-c2nc3cc(C)ccn3c2NC(=O)c2cc(Br)ccc2Cl)cc1OC	0.89	-0.19
COc1ccc(C(=O)N2CC(=O)Nc3ccc(F)cc3C2c2ccc(F)cc2)c(OC)c1 (centres undefined)	0.84	-2.8
Cc1cccc(CSc2nc3ccncc3n2Cc2nc(-c3ccccc3Cl)oc2C)c1	0.92	-1.2
COc1ccc(-n2c(Cc3cc(=O)[nH]c(=O)[nH]3)nnc2SCc2ccccc2)cc1	0.83	-2.5
COc1ccc(CNC(=O)CC(C)CC2=NS(=O)(=O)c3ccccc3N2)cc1 (centres undefined)	1	0.51
COc1ccc(CNC(=O)CSCc2cnn(-c3ccccc3)c2-n2cccc2)cc1	1	0.99
CC(C)OCCCNC(=O)CCn1c(=O)[nH]c2ccccc2c1=O	1.1	0.2
CCOC(=O)c1cc(-c2ccccc2)n(CCC(=O)Nc2ccc(F)cc2)c1C	0.97	-0.61
O=C(NCc1ccccc1)C1CCCN(c2nnc(-n3cccc3)s2)C1 (centres undefined)	0.99	-0.37
CCOc1ccccc1NC(=O)Cn1cnc2sc(C)cc2c1=O	1	1.2
Cc1onc(-c2c(F)cccc2Cl)c1C(=O)Nc1nnc(C2CC2)s1	1	0.95
O=C(Cn1nc(-c2ccc(Cl)cc2)c2ccccc2c1=O)N1CCOCC1	1	0.013
Cn1ccnc1CC(O)(c1ccccc1)c1ccccc1	0.88	-1.4
COc1ccc(C(=O)O)cc1Nc1cc(C)nc2nc(C)nn12	0.96	-1.2
CCN(CC)CCNC(=O)c1ccc(NC(=O)c2cn(CC)c3nc(C)ccc3c2=O)cc1	1	0.44
CCOc1cc2c(cc1OCC)C(c1cc(OC)ccc1F)NCC2 (centres undefined)	0.97	-0.56
Cc1ccccc1Cn1c(CNC(=O)c2c(F)cccc2F)nc2ccccc21	1.1	0.71
Cc1ccccc1-n1nc2c(c1NC(=O)c1cccs1)CS(=O)(=O)C2	1	0.68
O=C(CCS(=O)(=O)c1ccccc1)Nc1ccc2nc3n(c(=O)c2c1)CCCCC3	1	0.76
CCCOc1ccc(C(=O)N(Cc2ccc(C(C)C)cc2)C2CCS(=O)(=O)C2)cc1 (centres undefined)	1.2	1.4
Cc1ccc(CCNC(=O)CCC2=NS(=O)(=O)c3ccccc3N2)cc1	1.2	1.6
Other entries
SMILES	CBX7 AlphaScr	CBX7 AlphaScr z-score
COc1ccc(-c2nc(CSCC(=O)N3CCc4ccccc43)c(C)o2)cc1OC	1.1	0.7
CN(C(=O)c1nn2c(c1Cl)NC(c1ccccc1)CC2C(F)(F)F)C1CCCCC1 (centres undefined)	0.99	-0.22
O=C(NCCC1=CCCCC1)c1ccc2c(c1)N(Cc1ccc(F)cc1)C(=O)CS2	1.2	1.8
CCCCSCCCNC(=O)C(C)C1Sc2ccccc2N(Cc2ccc(C)cc2)C1=O (centres undefined)	0.96	-0.3
CC1CC(C)CN(C(=O)Cn2nc(Cc3ccncc3)c3ccccc3c2=O)C1 (centres undefined)	0.98	-0.79
CCCCN(CCCC)CCNC(=O)c1cc(=O)[nH]c2ccc(S(=O)(=O)N3CCCCC3)cc12	0.91	-1.1
COc1ccc(C(=O)c2oc3ccccc3c2NC(=O)c2ccc(C)cc2)cc1	1.1	2.5
COc1cccc(-c2cc(C(=O)N3CCCCCC3)no2)c1	1.1	0.47
Oc1ccccc1-c1cc(C(F)(F)F)nc(-c2ccccc2)n1	1	0.52
Clc1ccc(-c2cc(-c3ccc(Cl)cc3)n(-c3ccc(Cl)cc3)n2)cc1	1	0.23
COc1ccc(C(C(=O)NC2CCCC2)N(C)c2ccccc2)cc1 (centres undefined)	1	0.95
O=C(CC1C(=O)N(c2ccc(F)cc2)C(=O)N1CCc1cccs1)Nc1ccccc1 (centres undefined)	1	1.5
COc1ccc(Nc2ncnc3c2c(-c2ccccc2)cn3-c2cccc(Cl)c2)cc1	0.95	-1.3
Cc1ccc(NC(=O)CCNS(=O)(=O)c2ccc3c(c2)CCC(=O)N3)c(Cl)c1	1	0.83
Cc1ccc(C)c(-c2nc3ccc(NC(=O)C45CC6CC(CC(C6)C4)C5)cc3[nH]2)c1	0.99	-0.076
CCN1CCN(C(=O)C2CC(c3cc(OC)ccc3OC)=NO2)CC1 (centres undefined)	1.1	2
O=C(C1CC1)N1CCc2cc(S(=O)(=O)NC3CCN(Cc4ccccc4)CC3)ccc21	0.98	-0.24
COC(=O)c1c(NC(=O)c2ccccc2Br)sc(C)c1C	1.3	0.64
CCC(C)N1CC(C(=O)NCc2ccc3c(c2)OCO3)CC1=O (centres undefined)	1	2
CN(C)c1ccc(C2C(N3C(=O)c4ccccc4C3=O)C(=O)N2c2ccc(Cl)cc2)cc1 (centres undefined)	0.82	-6.4
Cc1cc(N2CCOCC2)n2nc(C)c(-c3ccc(Cl)cc3)c2n1	1.2	7.7
COc1ccc2c(c1)CC(C)(C)n1c(-c3ccccc3)nnc1-2	1.1	0.59
COc1ccc(OC)c(NC(=O)[C@H](CCS(C)(=O)=O)N2Cc3ccccc3C2=O)c1	0.95	-0.82
CC(C)(C)c1ccc(C(=O)NCCCN=C2NS(=O)(=O)c3ccccc32)cc1	1	-0.015

At a glance, part of the list above:
SMILES	CBX7 AlphaScr	CBX7 AlphaScr z-score
CCCCSCCCNC(=O)C(C)C1Sc2ccccc2N(Cc2ccc(C)cc2)C1=O (centres undefined)	0.96	-0.3
CC1CC(C)CN(C(=O)Cn2nc(Cc3ccncc3)c3ccccc3c2=O)C1 (centres undefined)	0.98	-0.79
CCCCN(CCCC)CCNC(=O)c1cc(=O)[nH]c2ccc(S(=O)(=O)N3CCCCC3)cc12	0.91	-1.1
COc1ccc(C(=O)c2oc3ccccc3c2NC(=O)c2ccc(C)cc2)cc1	1.1	2.5
COc1cccc(-c2cc(C(=O)N3CCCCCC3)no2)c1	1.1	0.47
Oc1ccccc1-c1cc(C(F)(F)F)nc(-c2ccccc2)n1	1	0.52
Clc1ccc(-c2cc(-c3ccc(Cl)cc3)n(-c3ccc(Cl)cc3)n2)cc1	1	0.23
COc1ccc(C(C(=O)NC2CCCC2)N(C)c2ccccc2)cc1 (centres undefined)	1	0.95
O=C(CC1C(=O)N(c2ccc(F)cc2)C(=O)N1CCc1cccs1)Nc1ccccc1 (centres undefined)	1	1.5
COc1ccc(Nc2ncnc3c2c(-c2ccccc2)cn3-c2cccc(Cl)c2)cc1	0.95	-1.3
Cc1ccc(NC(=O)CCNS(=O)(=O)c2ccc3c(c2)CCC(=O)N3)c(Cl)c1	1	0.83
Cc1ccc(C)c(-c2nc3ccc(NC(=O)C45CC6CC(CC(C6)C4)C5)cc3[nH]2)c1	0.99	-0.076
CCN1CCN(C(=O)C2CC(c3cc(OC)ccc3OC)=NO2)CC1 (centres undefined)	1.1	2
O=C(C1CC1)N1CCc2cc(S(=O)(=O)NC3CCN(Cc4ccccc4)CC3)ccc21	0.98	-0.24
COC(=O)c1c(NC(=O)c2ccccc2Br)sc(C)c1C	1.3	0.64
CCC(C)N1CC(C(=O)NCc2ccc3c(c2)OCO3)CC1=O (centres undefined)	1	2
CN(C)c1ccc(C2C(N3C(=O)c4ccccc4C3=O)C(=O)N2c2ccc(Cl)cc2)cc1 (centres undefined)	0.82	-6.4
Cc1cc(N2CCOCC2)n2nc(C)c(-c3ccc(Cl)cc3)c2n1	1.2	7.7

(further entries)
SMILES	CBX7 AlphaScr	CBX7 AlphaScr z-score
CCOC(=O)c1ccc(CNC(=O)[C@H](Cc2ccccc2)N2Cc3ccccc3C2=O)cc1	0.91	-2
CCCCOc1ccc(NC(=O)c2cc3c(n(-c4ccc(C)cc4)c2=O)CC(C)(C)CC3=O)cc1	1	-0.11
Cc1ccc(NC(=O)c2c(C)c(-c3ccc(Cl)cc3)nc3ccccc23)c(C)c1	1.1	0.32
Cc1cc2c(cc1C)NC(CC(=O)Nc1ccc(OC(F)F)cc1)C(=O)N2 (centres undefined)	0.98	-0.8
CCOC(=O)c1cnc2cc(C(F)(F)F)ccc2c1Nc1cccc(OC)c1	1.1	2.3
Cc1ccc(-c2nc(CSCC(=O)NC3CC3)c(C)o2)cc1	0.95	-0.93
CC(=O)Nc1ccc(S(=O)(=O)Nc2nc3n(n2)C(c2ccccc2)CC(=O)N3)cc1 (centres undefined)	1	-0.081
CCOc1ccc(C(=O)Nc2ccc(S(=O)(=O)Nc3nccc(C)n3)cc2)cc1OCC	1.1	1.1
Cc1ccc2oc(-c3cccc(NC(=O)c4cc5ccccc5o4)c3C)nc2c1	1	1.2
Cc1ccc2nc(N3CCC(C(=O)NC4CCCCC4)CC3)sc2c1	1	1.6
CCOC(=O)C1CCCN(c2c(NCCCN3CCCC(C)C3)c(=O)c2=O)C1 (centres undefined)	1	0.4
COCCCNC(=O)CNC(=O)Cn1ccc2ccccc2c1=O	1	0.47
Cc1c(NC(=O)c2ncn[nH]2)cccc1-c1nc2cc(Cl)ccc2o1	0.12*	-25*
CC(=O)Nc1ccc(Nc2cc(C)c(C#N)c3nc4cc(C)ccc4n23)cc1	0.93	-1.1
O=C(CSc1nccn1-c1ccc(F)cc1)Nc1nccs1	0.94	-0.076
CCOc1ccc(NC(=O)C2c3ccccc3C(=O)N3CCc4ccccc4C23)cc1 (centres undefined)	0.81	-3.1
COc1ccc2oc(=O)c(-c3csc(Nc4ccc(Cl)cc4)n3)cc2c1	1.2	1.8
CCN(CCCNC(=O)CCn1nc(-c2ccc(Cl)cc2)ccc1=O)c1ccccc1	0.71	-5.4
O=C(C1CC(c2ccc(F)cc2)=NO1)N1CCCc2ccccc21 (centres undefined)	1	1.5
COc1cc2c(cc1OC)C(C(=O)N1CCC(C(N)=O)CC1)C(c1ccccc1F)N(C)C2=O (centres undefined)	1	2
COCC(C)NC(=O)c1cc(-c2cc(OC)ccc2OC)on1 (centres undefined)	1	1.3
CC(NC(=O)c1ccc(F)cc1)C(c1cccs1)N1CCN(c2ccc(F)cc2)CC1 (centres undefined)	0.85	-4.9
Cc1cccc(NC(=O)CCCC2=NS(=O)(=O)c3ccccc3N2)c1	1	0.27
CC(C)(C)c1ccc(C2CC2C(=O)Nc2nnc(-c3ccncc3)s2)cc1 (centres undefined)	1.1	0.12
